High-throughput results (PubChem BioAssay)
gsp agonist: gsp mutant agonism | gsp mutant cells, cAMP HTRF, 30 min; control for the full effect not named in the record | AID 624287 | actives 0.13% (n = 340,000) | Potency, µM (doses to about 76.9 µM), without a hit: top-dose activation (cAMP increase), most hits filed as activators; active = well fitted activation curve with a large enough effect; inconclusive = small, poorly fitted or top-dose-only effect, or another doubt; inactive = no such curve, though single readings can be large or run the other way; cell line not stated here;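 note: phosphodiesterase inhibitor Ro 20-1724 added with compounds to block cAMP breakdown; potency is the fitted concentration of half-maximal effect; nearly all actives have a fitted effect of over 60% in size; about a fifth of the inactives were tested at one dose only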
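Cells stably selected in G418 were plated at 2000/well, grown 16-24 hr, then given compounds in DMSO with the PDE inhibitor […] (300 uM solution added) for 30 min at 37C; cAMP was read by HTRF.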
Menin MLL FP FL: displaces fluorescein MLL peptide from human menin | Fluorescence polarization, fluorescein-MLL peptide displacement from menin | FP activity change, % at 61.4 µM | 290,000 tested, under 10 active; inconclusive = falling polarisation curve, or a change in total fluorescence; inactive = total fluorescence flat and polarisation flat or rising; no compound was filed as active; the % refers to the polarisation; negative = inhibition;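 note: % of control where 0% means no effect; inhibitors lower the polarisation; unlabelled MLL peptide was the positive control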
gsp antag: antagonizes gsp, the McCune-Albright syndrome mutation. actives 0.4% (n = 340,000). Potency, µM (series often up to 76.9 µM), without a hit: at the top dose activity change, negative = inhibition, actives largely listed as inhibitors. gsp-mutant cells, cAMP HTRF, 30 min; control for the full effect not named in the record. AID 624288; active = falling curve of any shape with a large fitted effect; inconclusive = falling curve, mostly with a smaller effect; inactive = flat or rising curve; cell line not stated here;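 note: intracellular cAMP measured with PDE inhibitor Ro 20-1724 present during compound exposure; potency is the fitted concentration of half-maximal effect; % is set by controls: 0 for no effect and ±100 for the full control effect; nearly all actives have a fitted effect of over 65% in size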
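Cells in G418 medium, seeded 16-24 h, 37C; buffer exchange to DPBS + 1 mM CaCl2, 0.5 mM MgCl2, 0.05% BSA; cpds in DMSO + […] (300 uM stock), 30 min 37C; HTRF cAMP detection.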
Sfp PPTase inh: Sfp phosphopantetheinyl transferase inhibition | actives 3.5% (n = 310,000) | Potency, µM, for the others: max response, negative = inhibition, hits mostly inhibitors | Biochemical Sfp PPTase activity, qHTS | AID 1490; active = well fitted inhibition curve with a large enough effect; inconclusive = small, poorly fitted or top-dose-only effect, or another doubt; inactive = no such curve, though single readings can be large or run the other way;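 note: the enzyme is Sfp with the accession as filed and its product quenches rhodamine fluorescence; potency is the fitted concentration of half-maximal effect; 0% = enzyme reaction without inhibitor and -100% = no enzyme wells; top concentration of the series not given in the record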
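Reaction rates are the 30-min fluorescence difference (ex 525, em 598 nm) in wells containing 15 nM Sfp, 5 uM rhodamine-CoA and 12.5 uM BHQ-2-YbbR at pH 7.6 with 10 mM MgCl2.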
TRPV1 PAM: enhances activation of the human vanilloid receptor TRPV1. Q8NER1. actives 0.02% (n = 320,000). AID 540277. potentiation, % at 8.33 µM. TRPV1-expressing cells, Fluo-8 calcium influx, capsaicin EC20 potentiation; host cell line not named in the record; control for the full effect not named in the record; active means potentiation above 80%; inconclusive means 30% to 80%; inactive means below 30%; note: 0% is about no effect
Target sequence (Q8NER1 whole entry, looked up): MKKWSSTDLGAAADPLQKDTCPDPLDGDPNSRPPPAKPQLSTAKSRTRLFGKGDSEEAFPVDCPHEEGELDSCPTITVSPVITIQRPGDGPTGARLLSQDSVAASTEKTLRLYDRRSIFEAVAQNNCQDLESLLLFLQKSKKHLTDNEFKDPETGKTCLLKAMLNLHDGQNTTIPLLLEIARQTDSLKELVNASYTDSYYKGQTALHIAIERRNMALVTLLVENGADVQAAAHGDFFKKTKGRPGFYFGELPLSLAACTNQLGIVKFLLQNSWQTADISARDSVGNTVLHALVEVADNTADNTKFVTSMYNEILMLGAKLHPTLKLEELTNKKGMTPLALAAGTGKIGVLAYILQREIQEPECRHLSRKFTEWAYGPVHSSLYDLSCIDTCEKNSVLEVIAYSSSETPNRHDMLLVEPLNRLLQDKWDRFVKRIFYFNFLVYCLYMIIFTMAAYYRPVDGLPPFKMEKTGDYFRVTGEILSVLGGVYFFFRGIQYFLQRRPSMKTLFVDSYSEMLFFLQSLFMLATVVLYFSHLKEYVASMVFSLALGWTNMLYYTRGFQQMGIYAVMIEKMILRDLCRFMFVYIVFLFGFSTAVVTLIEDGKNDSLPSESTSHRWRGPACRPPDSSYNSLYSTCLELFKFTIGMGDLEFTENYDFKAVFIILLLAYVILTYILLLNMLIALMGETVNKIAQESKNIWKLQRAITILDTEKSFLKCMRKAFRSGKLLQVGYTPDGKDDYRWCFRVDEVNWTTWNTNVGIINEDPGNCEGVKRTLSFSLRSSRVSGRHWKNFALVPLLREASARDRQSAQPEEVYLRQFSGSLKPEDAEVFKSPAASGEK
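Fluo-8 calcium influx in TRPV1-expressing cells, kinetic read (ex 480/em 520 nm). Compound added and read 3 min for agonist activity, followed by capsaicin at EC20 final and 2 min further read for enhancement.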
CtBP-E1A inh: inhibitors of CtBP/E1A interaction | AlphaScreen GST-E1A/His-CtBP binding, 1536-well; stronger effect = lower value; control for the full effect not named in the record | activity change, % (no concentration beside the values) | actives 0.49% (n = 340,000) | AID 651724; in the data active means activity change below about -65%; inconclusive means about -30% to -65%; inactive means above about -30%; note: % is set by controls: 0 for no effect and ±100 for the full control effect; compound concentration not given in the record
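Homogeneous bead-based format: GST-tagged E1A captured on glutathione donor beads, His-tagged CtBP on nickel acceptor beads; compounds precede bead addition by 2 h at 37 °C.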
ClpP mod: qHTS Assay for Activators of ClpP; purified B. subtilis ClpP, FRET peptide cleavage, 20 min; actives 1.9% (n = 340,000); ATP-dependent Clp protease proteolytic subunit (Bacillus subtilis (strain 168)), P80244; Potency, µM (series often up to 57.5 µM), for inactives: at the top dose activity change, negative = active; active = well fitted falling curve with a large enough effect; inconclusive = small, poorly fitted or top-dose-only effect; inactive = no such curve, though single readings can be large or run the other way; note: potency is the fitted concentration of half-maximal effect; the source files actives as falling curves though it sought activators and does not explain the sign; nearly all actives have a fitted effect of over 65% in size; many hits overshoot -100%
Target sequence (P80244 whole entry, looked up): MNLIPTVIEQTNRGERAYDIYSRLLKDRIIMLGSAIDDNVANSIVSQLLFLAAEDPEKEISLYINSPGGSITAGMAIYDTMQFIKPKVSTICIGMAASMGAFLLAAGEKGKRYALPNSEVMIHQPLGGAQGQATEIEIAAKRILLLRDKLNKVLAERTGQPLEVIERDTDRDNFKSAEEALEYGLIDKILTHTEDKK
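FRET quenching reversal measured ClpP activation: 10 microg/mL B. subtilis ClpP at pH 8 with the FRET-FV decapeptide, read at 430 nm after 320 nm excitation. The 20-min minus 0-min signal was scaled between DMSO/no-enzyme wells and ADEP (5.8 microM final).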
* hit, by the source's call; u = inconclusive; x = no result given; & = joins results of further samples; [ ] = remark or other dose.

SMILES	gsp agonist	Menin MLL FP FL	gsp antag	Sfp PPTase inh	TRPV1 PAM	CtBP-E1A inh	ClpP mod
COc1ccc(Nc2n[nH]c(C)c2[N+](=O)[O-])cc1	10%	-3.3	2%	1%	0	-1	-0.9%
COc1ccc(C(=O)O)cc1S(=O)(=O)N1CCSCC1	-18%	-1.1	8%	10%	5	7	0.5%
Cc1ccc(S(=O)(=O)Nc2ccc3c(c2)c2c(n3S(=O)(=O)c3ccc(C)cc3)CCCC2=O)cc1	32%	1.1	-7%	15%	3	-6	-0.3%
Cc1ccc([N+](=O)[O-])cc1S(=O)(=O)N1CCN(C)CC1	14%[15.4 µM]	2.6	0%	2%	3	-1	x
COc1ccccc1-c1nnc(SC(C)C(=O)N2CCOCC2)o1 (stereo not given)	13%[15.4 µM]	x	2%	x	-3	7	-2.0%
COCCC1CCCCN1C(=O)c1ccc(OC)c(OC2CCN(C(C)=O)CC2)c1 (stereo not given)	-71%[inhibitor]	x	6%	x	x	6	1.7%
COC(=O)CCCCCC(CCC(=O)OC)NC(C)=O (stereo not given)	-18%	0.4	12%	12%	3	5	1.4%
Cc1ccc(S(=O)(=O)NCC(=O)OCC(=O)Nc2ccc3c(c2)OCCO3)cc1	-53%[inhibitor]	x	-12%	x	3	-2	-1.6%
COc1ccc(S(=O)(=O)Nc2cccc3c2O[C@@H](CN(C)CC2CC2)[C@@H](C)CN([C@@H](C)CO)C3=O)cc1	-12%	x	1%	x	x	-19	-3.1%
Cc1ccc(C(CC(=O)O)Nc2nc(N3CCOCC3)nc(N3CCOCC3)n2)cc1 (stereo not given)	0%	4.7	9%	4%	-6	10	-2.9%
CCCNC(=O)c1cc(Cl)c(NC(=O)C2=C(C)OCCS2)cc1OC	-1%	-5.2	-15%	5%	-18	-24	-0.4%
CN(C)CCCNC(=O)c1cc(S(=O)(=O)N2CCOCC2)ccc1F	0%	3.0	0%	17%	16	4	-10%
CC(=O)NCCn1c(SCC(=O)NCC2CCCO2)nc2ccccc2c1=O (stereo not given)	-4%	1.7	5%	-3%	-4	4	0.3%
N#C/C(=C\c1ccc(N2CCOCC2)o1)C(=O)N1CCOCC1	7%[15.4 µM]	u	-18%	-14%	-2	-9	-3.0%
COc1ccc(S(=O)(=O)N2CCC(C(=O)NCC3CCCO3)CC2)cc1 (stereo not given)	0%	6.1	6%	9%	-17	7	0.2%
COc1ccc(S(=O)(=O)N2CCc3ccccc32)cc1C(=O)OCC(=O)c1c(N)n(C)c(=O)n(C)c1=O	-6%[15.4 µM]	6.2	15%	-2%	3	-4	x
CCOC(=O)CC1COCCN1Cc1cn[nH]c1-c1cc(OC)c(OC)c(OC)c1 (stereo not given)	-5%	4.4	9%	22%	-15	3	0.6%
O=C(CCl)N1c2ccccc2OCC1c1ccccc1 (stereo not given)	-19%	1.0	2%	u	-7	7	1.1%
Cc1cccc(OCC(=O)N2CCC(c3ccccc3)C2)c1 (stereo not given)	6%	4.4	0%	3%	-14	-8	-0.9%
O=C(CSc1nc(C2CC2)nc2c1cnn2-c1ccccc1)Nc1c[nH]c(=O)[nH]c1=O	-12%	16	6%	1%	10	-21	x
CC(=O)Nc1ccc2c(c1)OCCOCCOc1cc(NC(C)=O)ccc1OCCOCCOCCO2	x	1.7	x	6%	3	x	x
COCCNC(=S)NNC(=O)c1ccco1	-14%	3.5	3%	-11%	-3	3	4.9%
Cc1ccc(NC2CCCN(C(=O)CCC3=NNC(=O)CC3)C2)cc1C (stereo not given)	17%	x	-4%	1%	6	0	-2.7%
CCCCN1C(N)=NC[C@@H]1C(C)O (stereo not given in full)	-15%	x	6%	x	x	1	-2.7%
COc1ccc(S(=O)(=O)NNC(=O)c2cc3c4ccccc4n(C)c3s2)cc1	u	5.7	20%	7%	3	-2	35µM*
COc1ccc(NC(=O)C23CC4CC(C2)CC(n2cnc(Br)n2)(C4)C3)c(C)c1	-28%	5.2	2%	4%	5	3	1.3%
Cc1ccc(NS(=O)(=O)c2cc(NC(=O)c3cc4c(s3)CCCC4)ccc2C)c(C)c1	5%	0.3	1%	11%	18	1	u
CCN(CC(=O)Nc1ccc(OC)cc1)C(=O)c1ccc(N2CCCC2=O)cc1	-20%	x	-1%	x	6	x	-0.5%
CCn1c(CSc2n[nH]c(N)n2)nc2cc(C(=O)O)ccc21	-23%[15.4 µM]	-26	9%	79µM*	-6	0	x
COc1ccccc1OCC(=O)Nc1cc(Cl)ccc1N1CCCCC1	10%	x	u	x	-1	-4	-6.3%
COCCn1nnnc1C(c1ccccc1)N1CCN(C(=O)c2ccco2)CC1 (stereo not given)	2%[15.4 µM]	x	0%	-10%	4	5	x
COCCN(C(=O)C1CC(=O)N(Cc2ccccc2)C1)c1nc(-c2ccc([N+](=O)[O-])cc2)cs1 (stereo not given)	u	x	u	x	-1	-16	-1.5%
Cc1ccccc1-n1c(C)cc(/C=N/NC(=O)c2ccncc2)c1C	15%	-1.2	9%	-18%	-21	1	-3.8%
CCOc1cc(C#N)c(NC(=O)CSc2nnnn2-c2ccc(OC)cc2)cc1OCC	5%	2.1	-2%	13%	6	0	-12%
C/C(N)=C(/C#N)C(=O)COC(=O)c1ccccc1Oc1ccccc1	12%[15.4 µM]	1.9	-1%	9%	-11	-3	u
O=C(CNC(=O)C12CC3CC(CC(C3)C1)C2)NCc1ccccc1	1%[15.4 µM]	x	4%	x	3	-20	u
CCCN(CC(=O)Nc1ccccc1C)C(=O)c1ccc2c(c1)OCO2	-4%	x	17%	x	-1	-1	1.8%
N#Cc1cc(-c2ccccc2)nnc1Oc1ccccc1	-4%	3.5	-4%	10%	-11	0	-2.9%
COC(=O)c1ccc(C2C(C(=O)c3ccco3)=C(O)C(=O)N2CC2CCCO2)cc1 (stereo not given)	-4%[15.4 µM]	x	13%	0%	7	-11	x
C/C(=N\NC(=O)COc1ccccc1)c1cccs1	5%	x	4%	3%	-18	-2	25µM*
Cc1ccc(S(=O)(=O)NC(=O)NC(C)Cc2ccccc2)cc1 (stereo not given)	21%[15.4 µM]	-4.4&-0.7	-15%	23%&13%	3	11	-2.1%
O=C(NCc1ccco1)c1cc(S(=O)(=O)N2CCOCC2)c(Cl)cc1Cl	-39%[inhibitor]	-2.7	0%	-5%	-4	7	-8.9%
NC(=O)CNC(=O)C1CCN(S(=O)(=O)c2ccc(-n3cnnn3)cc2)CC1	1%[15.4 µM]	x	4%	3%	-2	0	x
CC(=O)NC1C(=O)N(C)c2ccc(Br)cc21 (stereo not given)	15%	-0.1	9%	1%	-4	16	0.9%
CC1(c2ccccc2)NC(=O)N(CC(=O)N2CCN(S(=O)(=O)c3ccccc3[N+](=O)[O-])CC2)C1=O (stereo not given)	9%[15.4 µM]	x	-4%	14%	-27	1	-1.1%

Shown as a hit in Sfp PPTase inh, among the entries above:
mol | gsp agonist | Menin MLL FP FL | Sfp PPTase inh | CtBP-E1A inh
CCn1c(CSc2n[nH]c(N)n2)nc2cc(C(=O)O)ccc21 | -23%[15.4 µM] | -26 | 79µM* | 0

Part of the list above in order of formula weight, falling.
SMILES	gsp agonist	Menin MLL FP FL	gsp antag	Sfp PPTase inh	TRPV1 PAM	CtBP-E1A inh	ClpP mod
COCCN(C(=O)C1CC(=O)N(Cc2ccccc2)C1)c1nc(-c2ccc([N+](=O)[O-])cc2)cs1 (stereo not given)	u	x	u	x	-1	-16	-1.5%
C/C(=N\NC(=O)COc1ccccc1)c1cccs1	5%	x	4%	3%	-18	-2	25µM*
N#Cc1cc(-c2ccccc2)nnc1Oc1ccccc1	-4%	3.5	-4%	10%	-11	0	-2.9%

3 compounds from above, arranged by the value under gsp agonist, falling.
| Compound | gsp agonist | Menin MLL FP FL | Sfp PPTase inh | CtBP-E1A inh |
| --- | --- | --- | --- | --- |
| Cc1ccccc1-n1c(C)cc(/C=N/NC(=O)c2ccncc2)c1C | 15% | -1.2 | -18% | 1 |
| C/C(=N\NC(=O)COc1ccccc1)c1cccs1 | 5% | x | 3% | -2 |
| CCCN(CC(=O)Nc1ccccc1C)C(=O)c1ccc2c(c1)OCO2 | -4% | x | x | -1 |

Other records follow:
SMILES	gsp agonist	Menin MLL FP FL	gsp antag	Sfp PPTase inh	TRPV1 PAM	CtBP-E1A inh	ClpP mod
CCOC(=O)c1c(C)[nH]c(C)c1C(=O)COC(=O)c1cc(OC)cc(OC)c1	-8%[15.4 µM]	4.2	-11%	1%	3	1	x
CN(Cc1ccccc1)C(=O)Cn1nc(C(F)(F)F)c2c1CCC2	-21%	-0.8	15%	8%	18	1	1.9%
S=C(NCC1CC1)N/N=C/c1ccccc1Cl	3%[15.4 µM]	2.0	-2%	8%	-2	-1	x
CCOC(=O)c1cc2sccc2n1CC(=O)c1ccc2c(c1)OCCO2	1%	-1.8	-12%	5%	18	-6	-2.6%
CCC(C(=O)Nc1ccc2c(c1)OCCO2)n1nnc2ccccc2c1=O (stereo not given)	0%	x	0%	7%	-12	7	0.8%
COc1ccccc1N1CCN(CCCOc2ccc(F)cc2)CC1	5%	0.4	-4%	-23%	7	-2	0.3%
CN(CC(=O)N1CCCC1)S(=O)(=O)c1ccc(Cl)cc1	-9%	6.3	-2%	14%	4	7	-1.1%
CC(C)(C)C(=O)C(Cc1ccccc1)n1cncn1 (stereo not given)	-20%	-3.2	8%	-10%	-8	14	1.8%
CCN(CC(=O)NCc1cccs1)C(=O)/C=C/c1cccc(OC)c1OC	9%[15.4 µM]	x	5%	x	11	5	x
CCOC(=O)N1CCC(NC(=O)C2=C(C)C(=O)OC23CCC(C)CC3)CC1 (stereo not given)	6%	3.6	9%	20%	2	8	-2.3%
COc1ccc([C@H]2CC(=O)C=C(c3ccc4ccn(C)c4c3)C2)cc1	0%	x	-5%	x	10	u	u
CC(=NO)C1(C)CC=CCC1CO (stereo not given)	-27%	x	x	x	x	8	1.5%
Cc1ccc(Cn2cc(/C=N/NC(=O)Cc3nnc(NC(=O)c4ccc(C)cc4)s3)c3ccccc32)cc1	-4%	6.7	1%	25%	-2	x	-5.0%
